# VDR inhibitor: Inhibitors of the vitamin D receptor (VDR): qHTS | Vitamin D3 receptor (Homo sapiens), P11473 | VDR-SRC2-3 peptide fluorescence polarization, 2 h | Potency, µM, without a hit: max response, negative = inhibition, usual class: inhibitors | 400,000 compounds, 0.93% hits; active means well fitted inhibition curve with a large enough effect; inconclusive means small, poorly fitted or top-dose-only effect, or another doubt; inactive means no such curve, though single readings can be large or run the other way; further: series mostly up to about 120 µM
# Target sequence (P11473 whole entry, looked up): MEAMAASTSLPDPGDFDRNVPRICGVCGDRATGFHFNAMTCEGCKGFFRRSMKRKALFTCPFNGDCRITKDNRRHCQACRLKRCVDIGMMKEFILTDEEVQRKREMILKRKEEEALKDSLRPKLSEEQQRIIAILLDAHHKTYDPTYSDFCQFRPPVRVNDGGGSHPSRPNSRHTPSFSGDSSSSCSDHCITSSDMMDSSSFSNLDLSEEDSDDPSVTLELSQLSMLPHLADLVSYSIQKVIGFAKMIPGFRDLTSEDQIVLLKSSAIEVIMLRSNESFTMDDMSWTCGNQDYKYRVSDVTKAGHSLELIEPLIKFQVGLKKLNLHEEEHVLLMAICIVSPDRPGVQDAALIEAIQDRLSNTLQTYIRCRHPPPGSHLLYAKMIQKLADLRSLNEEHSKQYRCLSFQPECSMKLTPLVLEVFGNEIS
#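 Compounds are added to VDR with labelled SRC2-3 coactivator peptide and held 2 h at room temperature. Inhibition of the VDR–peptide interaction is then read as a change in fluorescence polarization.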
# * = called active by the depositor; ? = inconclusive; [ ] = dose if it differs, or a comment. On the % scale 0 is the no-effect control and ±100 the full control effect; potency means the concentration at half of the fitted maximal effect. Some of the compounds tested; count on the stated rates, not on these rows.
# Sample of the layout, seven compounds:
VDR inhibitor | Compound
17% | Cc1ccc(OCc2cc(C(=O)N3CCC(c4ccccc4Cl)C3)no2)cc1C (stereo not drawn)
-18% | O=C(NC(Cc1ccccc1)C(=O)O)/C(=C\c1ccco1)NC(=O)c1ccc(Br)cc1 (stereo not drawn)
8% | O=C(NNC(=O)c1ccccc1-n1cccc1)c1ccc(Cl)nc1
-4% | CCCCN(C(=O)c1ccc(NC(=O)C(C)C)cc1)c1ccccc1
22% | Cc1cc(=O)[nH]c(N=N/C(=N/Nc2ccccc2C)c2ccccc2)n1
-2% | COc1ccccc1-n1c(-c2ccc(C)cc2)cn2c3c(=O)n(C)c(=O)n(C)c3nc12
-4% | CC(=O)Nc1cccc(NS(=O)(=O)c2cn(C)c(=O)n(C)c2=O)c1

# This part in full, repeating the preview:
VDR inhibitor | Compound
17% | Cc1ccc(OCc2cc(C(=O)N3CCC(c4ccccc4Cl)C3)no2)cc1C (stereo not drawn)
-18% | O=C(NC(Cc1ccccc1)C(=O)O)/C(=C\c1ccco1)NC(=O)c1ccc(Br)cc1 (stereo not drawn)
8% | O=C(NNC(=O)c1ccccc1-n1cccc1)c1ccc(Cl)nc1
-4% | CCCCN(C(=O)c1ccc(NC(=O)C(C)C)cc1)c1ccccc1
22% | Cc1cc(=O)[nH]c(N=N/C(=N/Nc2ccccc2C)c2ccccc2)n1
-2% | COc1ccccc1-n1c(-c2ccc(C)cc2)cn2c3c(=O)n(C)c(=O)n(C)c3nc12
-4% | CC(=O)Nc1cccc(NS(=O)(=O)c2cn(C)c(=O)n(C)c2=O)c1
6% | CC(C)(C)CC(C)(C)NC(=S)Nc1ccc2nc(-c3ccccn3)c(-c3ccccn3)nc2c1
-16% | Cc1ccc(S(=O)(=O)N(C)C[C@H]2Oc3ccc(NC(=O)C4CCCCC4)cc3C(=O)N([C@H](C)CO)C[C@H]2C)cc1
-9% | COc1cccc(C(=O)NC2CC(C)(C)Cc3c2cnn3-c2cccc(F)c2)c1OC (stereo not drawn)
2% | COc1ccc(NC(=S)Nc2cc(C)ccn2)c(OC)c1
6% | CN(C)CCCn1c2c(c(SCC(=O)Nc3cccc4ccccc34)nc1=O)CCC2
17% | CCCCOCCCNC(=O)c1c(-c2ccccc2)noc1C
1% | Cc1ccc(C)c(OCc2cc(C(=O)N3CCN(c4ccccc4C)CC3C)no2)c1 (stereo not drawn)
-14% | Cc1cc(C)c(S(=O)(=O)N2CCN(C)CC2)c(C)c1

# Next entries follow.
VDR inhibitor | Compound
1% | CC(=O)Nc1ccc(S(=O)(=O)N/N=C/c2cccnc2)cc1
-2% | C/C(=C\C(=O)c1ccc(F)cc1)NCc1ccc2c(c1)OCO2
-2% | COc1ccc(C(=O)Oc2cc(N)n(S(=O)(=O)c3ccc(C)cc3)n2)cc1
7% | COCCN1C(=O)c2ccccc2C(C(=O)NCCCN2CCCC2)C1c1c[nH]c2ccccc12 (stereo not drawn)
-11% | Cc1ccc(Nc2nc(-c3sc(NC(=O)c4ccccc4)nc3C)cs2)cc1
20% | CCOC(=O)c1cnc2c(ccc3ccccc32)c1NCCO
8% | CN(CC(=O)Nc1ccc(Cl)cc1)CC(=O)Nc1cccc(Br)c1
-4% | CC1CCCN(C(=O)COC(=O)COc2ccc(C#N)cc2)C1 (stereo not drawn)
2% | CCC(=O)Nc1ccc(C(=O)OCc2ccccc2Cl)cc1
-14% | CCc1cc(C(=O)OC)c(NC(=O)CSc2nccn2C)s1
-7% | CC(C)(C)n1nc2c(c1NC(=O)c1ccc(C(F)(F)F)cc1)CS(=O)(=O)C2
-10% | CCc1ccccc1NC(=O)CN(C)C(=O)Cn1cnc2ccc(Cl)cc2c1=O
-12% | Cc1ccc(S(=O)(=O)N(C)CC(=O)N(CC(C)C)C2CCS(=O)(=O)C2)cc1 (stereo not drawn)
-6% | CC1CCN(C(=O)Cn2c(=O)n(CCc3ccccc3)c(=O)c3ccccc32)CC1
11% | CCCc1nn2c(=O)cc(COC(=O)c3ccc(NC(=O)COc4ccc(F)cc4)cc3)nc2s1

# Following part.
VDR inhibitor | Compound
-4% | CCOC(=O)C1CCCN(c2ncnc3c2oc2ccccc23)C1 (stereo not drawn)
-10% | Cc1ccc(CSc2nc3nc(C)cc(C)n3n2)cc1
-11% | O=C1c2cccc3cccc(c23)C(=O)N1CCCn1ccnc1
-11% | CC(C)=CCC[C@](C)(O[C@@H]1O[C@H](CO[C@@H]2O[C@H](CO)[C@@H](O)[C@H](O)[C@H]2O)[C@@H](O)[C@H](O)[C@H]1O)C1CC[C@]2(C)C1C(=O)CC1[C@@]3(C)CC[C@H](O[C@H]4O[C@@H](CO)[C@H](O)[C@@H](O)[C@@H]4O)C(C)(C)C3CC[C@]12C (stereo partly drawn)
1% | COC(=O)CCCC1=CC2=CC(=O)C(C)(O)C(=O)C2=CO1 (stereo not drawn)
-1% | COc1ccccc1CNS(=O)(=O)c1ccc(NC(C)=O)cc1
1% | COc1ccc(/C=C2\CCC/C(=C\c3ccc(OC)c(OC)c3OC)C2=O)c(OC)c1OC
-4% | CC(c1ccccc1)N1CCn2c(nc3cc(NS(C)(=O)=O)ccc32)C1 (stereo not drawn)
-4% | Cn1cc(CNC(=O)c2ccc3nc(Cc4ccccc4F)oc3c2)cn1
-21% | COC(=O)c1nnn(CC(=O)Nc2cc(Cl)ccc2C)c1C(=O)OC
14% | CC(C)OCCCN1C(=O)c2[nH]nc(-c3ccccc3O)c2C1c1cccc(OCc2ccccc2)c1 (stereo not drawn)
-3% | COc1ccc(-c2coc3cc4oc(=O)c(CC(=O)O)c(C)c4cc23)cc1
-2% | COc1cc(/C=C2/SC(=S)N(Cc3ccccc3)C2=O)ccc1O
-14% | COC(=O)CSc1nc2sc3c(c2c(=O)n1Cc1ccccc1)CCC(C(C)(C)C)C3 (stereo not drawn)
20% | Cc1ccsc1C(=O)Nc1nnc(-c2ccco2)o1

# The list goes on.
VDR inhibitor | Compound
7% | O=C(NC1CCCCC1)C(c1ccccc1)N(Cc1cccnc1)C(=O)c1csnn1 (stereo not drawn)
32%[activator] | COc1ccc2[nH]c(=O)c(CN(C(=O)NC3CCCCC3)C3CCCCC3)cc2c1
2% | CC(=O)Nc1ccc(NC(=O)c2ccc(NS(=O)(=O)c3cccc4cccnc34)cc2)cc1
-8% | COc1ccc([N+](=O)[O-])cc1NC(=O)c1ccc(C)o1
-9% | CCCCc1ccc(NC(=O)CSc2nc3ccccc3nc2N2CCCCC2)cc1
5% | c1ccc(CCc2cc3ccccc3[nH]2)cc1
9% | Cc1ccccc1NC(=O)c1c(C)oc2ccc(O)c(CN3CCCC3)c12
-10% | Cc1ccc([N+](=O)[O-])cc1NC(=O)c1ccc2c(c1)OCO2
-1% | CCOC(=O)N1CCN(C(=O)c2ccc(OCC)c(OCC)c2)CC1
1% | O=S1(=O)CCN(Cc2ccc(Cl)c(Cl)c2)CC1
3% | Cc1ccc(S(=O)(=O)Nc2ccc(S(=O)(=O)NCC3CCCO3)cc2)cc1 (stereo not drawn)
-5% | COC(=O)c1ccc(CNC(=O)c2ccc(NS(=O)(=O)c3ccc4[nH]c(=O)[nH]c4c3)cc2)cc1
1% | Nc1ccc(C(=O)N/N=C/c2cccc(Oc3ccccc3)c2)cc1
9% | CCc1ccc(NC(=O)CCc2c(C)n(C)c3cc(-c4ccccc4C)nn3c2=O)cc1
13% | Cc1cccc(C)c1OCC(=O)NNC(=O)c1ccoc1C

# (cont.)
VDR inhibitor | Compound
1% | O=C1C2C3C=CC(C3=C3CCCCC3)C2C(=O)N1Cc1ccccc1 (stereo not drawn)
? | O=C(O)c1cc(=O)c2c3nc4ccccc4oc-3cc(=O)c2[nH]1
17% | CCOC(=O)C(/C=C(\C#N)C(=O)OCC)=C(/N)N1CCN(c2ccc(Cl)cc2)CC1
7% | Cc1ccc(CC(NC(=O)c2ccccc2)C(=O)NC(Cc2ccccc2)C(=O)O)cc1 (stereo not drawn)
15% | COc1ccc(CN2CC[C@@H](N3CCOCC3)[C@H](O)C2)cc1F
-10% | COc1ccc([C@H]2CC(=O)C=C(c3ccc(C)c4ccccc34)C2)cc1
-15% | O=C1[C@H](Cc2ccccc2)NCC=CC[C@@H](c2ccc(Cl)cc2)N1Cc1ccccc1
-21% | CCCn1c(=O)n(C)c(=O)c2c(SCC(=O)Nc3cc(C)on3)nc(C(C)(C)C)nc21
9% | CC1CCCN(C(=O)CCCn2c(=S)[nH]c3ccccc3c2=O)C1 (stereo not drawn)
-27% | O=C(C[n+]1cc(Br)cc(Br)c1)c1cccc([N+](=O)[O-])c1
2% | COc1ccc(NC(=S)NCc2cccs2)cc1
-6% | COc1ccc(NC(=O)CN(C)C(=O)c2ccc(COc3ccccc3)o2)cc1
11% | Cc1ccc(S(=O)(=O)N2CCOCCOCCOCCOCCOCC2)cc1
-17% | OCCNc1nc(-c2ccccc2)c2cc(Br)ccc2n1
4% | Cc1cccc(CN2C(=O)c3ccccc3Sc3ccc(C(=O)NCc4ccco4)cc32)c1

# An excerpt taken from the entries so far:
VDR inhibitor | Compound
-21% | CCCn1c(=O)n(C)c(=O)c2c(SCC(=O)Nc3cc(C)on3)nc(C(C)(C)C)nc21
9% | CC1CCCN(C(=O)CCCn2c(=S)[nH]c3ccccc3c2=O)C1 (stereo not drawn)
-27% | O=C(C[n+]1cc(Br)cc(Br)c1)c1cccc([N+](=O)[O-])c1
2% | COc1ccc(NC(=S)NCc2cccs2)cc1
-6% | COc1ccc(NC(=O)CN(C)C(=O)c2ccc(COc3ccccc3)o2)cc1

# Remaining list, next part
VDR inhibitor | Compound
-1% | Cc1cc(C(=O)N2CCCC2)n[nH]1
11% | O=C(NCCO)C(=O)NCC(c1ccc2c(c1)OCO2)N1CCOCC1 (stereo not drawn)
28% | COc1cc(OC)c(C(=O)NNC(=O)c2ccccc2-n2cccc2)cc1OC
? | NC(=S)N=Nc1ccc(O)cc1
-5% | CC(=O)O[C@@H](C[C@@H](C)C1=C2C[C@H](O)C3[C@@]4(C)CCC(=O)C(C)(C)C4CC[C@]3(C)[C@@]2(C)CC1)[C@H]1OC1(C)C (stereo partly drawn)
26% | CCOC(=O)c1ccc(NC(=O)CSc2nnnn2CCCO)cc1
-20% | Cc1cccc(C(=O)Nc2cccc(C(=O)Nc3cc(C)ccn3)c2)c1
10% | Cc1oc(-c2ccccc2F)nc1CN1CCC(C(=O)NC2CC2)CC1
-22% | CCCOc1ccc(C(F)(F)F)cc1NC(=O)c1cc(C)on1
-21% | CCOC(=O)N1CCC(NC(=O)CCCC(=O)O)CC1
24% | Cc1noc(C)c1CN1C(=O)c2cccc([N+](=O)[O-])c2C1=O
23% | Cc1cc(C)n(CC(=O)c2ccccc2)c(=O)c1C#N
7% | Cc1ccc(NC(=O)Nc2nnc(-c3ccccc3F)s2)cc1
-18% | CN(C)C(CNC(=O)c1ccc(C(F)(F)F)cc1)c1ccco1 (stereo not drawn)
-9% | CC(C)[C@H](N)c1nnc(SCc2ccc(Cl)cc2)o1

# (next part)
VDR inhibitor | Compound
5% | CC(C)C[C@H](NC(=O)CCCn1nnc2ccccc2c1=O)C(=O)O
2% | Cc1nc2sc(C(=O)Nc3ccccc3Cc3ccccc3)c(C)c2c(=O)[nH]1
-7% | O=C(O)c1cccc(Nc2nc(-c3cc4ccccc4oc3=O)cs2)c1
-4% | COc1ccc(/C(C)=C2/SC(=S)N(CCC(=O)O)C2=O)cc1
-16% | O=C(NNC(=S)Nc1ccccc1C(F)(F)F)c1cccnc1
-3% | Cc1cccc(-c2nc(CN3CCCC(C(=O)NC4CCCCCC4)C3)c(C)o2)c1 (stereo not drawn)
7% | O=C(c1ccc(Br)cc1)c1cc([N+](=O)[O-])ccc1N1CCCCC1
-22% | C=C1CCN(C(Cc2ccccc2)C(=O)N2CCOCC2)S(=O)(=O)c2ccccc21 (stereo not drawn)
9% | CN(C)c1nc(N(C)C)nc(N2CCCCC2)n1
-1% | Cc1cc(SCC(=O)N2CCC(c3noc4ccc(F)cc34)CC2)nc2ccccc12
81%[activator] | Cc1ccc(NC(=O)Cn2c(=O)n(CCCCCC(=O)NCc3ccc(F)cc3)c(=O)c3sccc32)cc1C
-19% | CCOC(=O)C(C(=O)c1ccccc1)[C@H](CCc1ccccc1)NC(=O)OC (stereo partly drawn)
2% | CCCCC(=NCCO)C1=C(O)C(C(=O)OC)C(C)(C)CC1=O (stereo not drawn)
1% | Cc1ccc(C)c(NC(=O)C2C3C=CC(O3)C2C(=O)O)c1 (stereo not drawn)
-6% | Cc1nn(Cc2c(Cl)cccc2Cl)c(C)c1NC(=O)CCCn1nc(C)c([N+](=O)[O-])c1C

# Following part:
VDR inhibitor | Compound
8% | COc1ccc(-c2nc3c4ccccc4n(CC(=O)N4CCN(c5ccccc5OC)CC4)c(=O)n3n2)cc1
2% | CSc1ccc(CNC(=O)c2cc3c(=O)n(Cc4ccco4)ccc3nc2C)cc1
-28% | Cc1ccc(-c2nn(-c3ccccc3)cc2C(=O)NCCCN2CCCC2=O)cc1
? | O=C1C(Br)=C(c2ccccc2)C(c2ccccc2)=C1c1ccccc1
-3% | COc1ccc(/C=C/c2nnc(NC(=O)COc3ccccc3)s2)cc1
-2% | COc1ccc(CCn2c(=N)c(C(=O)NCc3ccco3)cc3c(=O)n4ccccc4nc32)cc1
9% | CCOc1cc(-c2nnc(SCC(=O)NCc3ccc(C)cc3)nc2-c2ccc(OC)c(OCC)c2)ccc1OC
20% | Cc1ccc(/C=N/NC(=O)Cn2cnc3ccccc32)cc1
0% | COc1ccc(N(CN2C(=O)c3ccccc3C2=O)C(=O)COc2ccc(Cl)cc2Cl)cc1
-13% | CSCCC(NS(=O)(=O)c1ccccc1F)C(=O)Nc1ccncc1 (stereo not drawn)
21% | C=CC[C@H](CC(=O)NCCO)C(=O)N[C@H](COC(=O)[C@@H](CC=C)CC(=O)OC(C)(C)C)Cc1c[nH]c2ccccc12
0% | Cc1cccc(C(=O)N2CCc3ccccc3C2)c1[N+](=O)[O-]
-10% | Cc1ccc(CCN2CC(C(=O)NCCCN(C)Cc3ccccc3)CC2=O)cc1 (stereo not drawn)
-9% | Cc1cccn2c(Nc3ccccc3)c(-c3cccs3)nc12

# Source: PubChem BioAssay (National Center for Advancing Translational Sciences (NCATS))
